Screens deposited in PubChem by National Center for Advancing Translational Sciences (NCATS).
PINK1 expr mod: PINK1 expression modulation | PINK1 immunofluorescence, high-content cytometry, 24 h | Potency, µM (series often up to 76.6 µM), for the others: top-dose activation (PINK1 increase), most hits filed as activators | actives 0.2% (n = 410,000); active = well fitted activation curve with a large enough effect; inconclusive = small, poorly fitted or top-dose-only effect; inactive = flat fitted curve, though single readings scatter; cell line not stated here;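 also: potency is read from the fitted curve at half-maximal effect; % of control where 0% means no effect; nearly all actives have a fitted effect of over 65% in size; a mitochondrial uncoupler was the plate control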
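PINK1 protein, normally rapidly degraded, was detected by immunofluorescence after 24 hour compound treatment of a stable cell line. Titration data (5 concentrations) came from laser-scanning cytometry, with CCCP-treated wells as controls.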
D2 agonist: human D2 receptor agonism in beta-arrestin assay; P14416; DiscoveRx PathHunter D2 beta-arrestin, luminescence, 90 min; 100% = 57 uM dopamine signal; actives 0.084% (n = 360,000); activation, % (no concentration beside the values); in the data active = activation above about 40%; inconclusive = about 15% to 40%; inactive = below about 15%; also: compound concentration not given in the record; the text of the record calls up to 30% inactive
Target sequence (P14416 whole entry, looked up): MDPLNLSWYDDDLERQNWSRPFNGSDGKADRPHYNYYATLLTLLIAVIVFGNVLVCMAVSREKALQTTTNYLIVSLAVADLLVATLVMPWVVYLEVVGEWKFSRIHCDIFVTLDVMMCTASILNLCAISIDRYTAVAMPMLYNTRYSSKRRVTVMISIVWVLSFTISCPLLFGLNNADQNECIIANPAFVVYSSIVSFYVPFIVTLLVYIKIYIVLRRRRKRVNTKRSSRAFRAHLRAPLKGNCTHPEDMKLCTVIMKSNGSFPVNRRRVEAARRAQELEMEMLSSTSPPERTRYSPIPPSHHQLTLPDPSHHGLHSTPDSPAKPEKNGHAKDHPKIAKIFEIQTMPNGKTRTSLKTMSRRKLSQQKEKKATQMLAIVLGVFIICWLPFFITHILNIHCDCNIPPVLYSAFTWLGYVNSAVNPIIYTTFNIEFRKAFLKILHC
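DiscoveRx PathHunter D2 beta-arrestin cells (2,100/well) attached overnight, then compound-stimulated 90 min at 37 C in HBSS/10 mM HEPES/0.1% Tween-20 buffer; beta-galactosidase complementation read by luminescence after 1 h at ambient temperature. Dopamine 57 uM final (EC100) as control.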
CtBP-E1A inh: inhibitors of CtBP/E1A interaction. AID 651724. activity change, % (concentration not given with the values). actives 0.49% (n = 340,000). AlphaScreen GST-E1A/His-CtBP binding, 1536-well; active compounds read low; control for the full effect not named in the record; in the data active means activity change below about -65%; inconclusive means about -30% to -65%; inactive means above about -30%; also: % is scaled to controls: 0 for no effect and ±100 for the full control effect
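In 5 uL wells, 23 nL compound meets equimolar GST-E1A and His-CtBP (5X stock 125 nM each) for 2 h, 37 °C. Beads (5X, 50 ug/mL) then 1 h, 37 °C, dark.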
TRPML1 agonist: human mucolipin-1 channel agonism; Q9GZU1; TRPML1-expressing cells, Ca2+ dye fluorescence, FDSS; host cell line not named in the record; reference of the full effect not given here; activation, % (no concentration beside the values); actives 0.12% (n = 410,000); in the data active = activation above about 50%; inconclusive = about 30% to 50%; inactive = below about 30%; also: 0% is about no effect; the text of the record puts the active cut at 80%
Target sequence (Q9GZU1 whole entry, looked up): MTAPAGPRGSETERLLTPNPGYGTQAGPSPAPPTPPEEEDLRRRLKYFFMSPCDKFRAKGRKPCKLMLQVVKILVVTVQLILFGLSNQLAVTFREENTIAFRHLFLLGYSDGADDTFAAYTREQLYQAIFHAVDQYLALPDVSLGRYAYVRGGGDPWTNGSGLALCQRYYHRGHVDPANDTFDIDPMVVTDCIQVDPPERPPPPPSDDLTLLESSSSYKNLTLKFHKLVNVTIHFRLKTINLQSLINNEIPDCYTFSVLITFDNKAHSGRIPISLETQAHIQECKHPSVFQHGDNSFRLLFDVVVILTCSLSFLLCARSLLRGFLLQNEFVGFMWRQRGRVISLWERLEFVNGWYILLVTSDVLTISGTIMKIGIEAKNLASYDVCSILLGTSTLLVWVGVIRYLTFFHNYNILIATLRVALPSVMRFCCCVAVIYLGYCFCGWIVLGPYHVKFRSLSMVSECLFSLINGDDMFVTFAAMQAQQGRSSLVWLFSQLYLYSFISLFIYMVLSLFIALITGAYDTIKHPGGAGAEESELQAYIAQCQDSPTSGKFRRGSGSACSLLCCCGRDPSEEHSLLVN
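Kinetic FDSS Ca2+ read in Tet-induced TRPML1-DL cells (ABD Ca8 dye plus quencher, 45-90 min RT loading): baseline, then compound, then 110 s agonist window; EC80 agonist 54-4 at 4uM final added afterwards for a 110 s antagonist window.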
Six1-Eya2 blk: Six1/Eya2 interaction inhibition | Q15475+O00167 | AlphaScreen GST-Six1/His-Eya2 binding, biochemical; active compounds read low; control for the full effect not named in the record | activity change, % (test concentration not listed) | actives 0.56% (n = 360,000) | AID 651725; in the data active = activity change below about -65%; inconclusive = about -30% to -65%; inactive = above about -30%; also: % is scaled to controls: 0 for no effect and ±100 for the full control effect
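AlphaScreen luminescence read after one hour at 37 °C in darkness. Pin-transferred compounds met GST-Six1 and His-Eya2 protein (5X stock 250 nM/500 nM) plus glutathione donor and Ni-chelate acceptor beads (5X, 50 ug/mL).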
TRPML1 blocker: blocks the human TRPML1 channel; activity change, negative = inhibition, % (test concentration not listed); TRPML1-inducible cells, Ca2+ dye fluorescence, FDSS; active compounds read low; inhibition of EC80 agonist-evoked calcium signal; Q9GZU1; actives 0.02% (n = 390,000); in the data active means activity change below about -50%; inconclusive means about -30% to -50%; inactive means above about -30%;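 also: stimulus is agonist 54-4 at its EC80 concentration; % is scaled to controls: 0 for no effect and ±100 for the full control effect; compound concentration not given in the record; the text of the record puts the active cut at -80%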
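TRPML1-DL cells, Tet-induced overnight (~16 h, 37 °C) at 1,500 cells/well, were loaded with Ca8 no-wash dye plus quencher for 45-90 min at room temperature. Compounds were pinned during FDSS kinetic reading; agonist 54-4 at EC80 (4 uM final) then added.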
* marks the source's active call; other numbers are inactive results; u = inconclusive; x = not tested or not shown; [ ] = another dose, or the depositor's remark.

Sequence of screens: PINK1 expr mod	D2 agonist	CtBP-E1A inh	TRPML1 agonist	Six1-Eya2 blk	TRPML1 blocker
CCOC(=O)c1c(C)[nH]c(C(=O)CSc2nc(C)cc(C)n2)c1C
  -0.9%	-4.2	-3	0.4	3	12
CCOc1ccccc1CNS(=O)(=O)c1cc2c(cc1C)NC(=O)CO2
  -1.8%	x	x	0.8	x	-1
CC(C)OCCCNC(=O)c1ccc(C2SCC(=O)N2Cc2ccco2)cc1 (configuration not stated)
  2.7%	0.6	-7	-1.2	13	2
CC(C)[C@H](NC(=O)C1CCN(S(=O)(=O)c2ccc(F)cc2)CC1)C(=O)N1CCCCCC1
  -1.6%	0.9	0	0.0	7	3
CCNC(=O)C1(C)CCCN(Cc2csc3ccccc23)C1 (configuration not stated)
  -0.6%	-6.2	2	-0.1	-2	-1
COc1ccc(CCNC(=O)CSc2n[nH]c(N)n2)cc1OC
  -0.2%	-2.0	0	0.0	-1	-12
Cn1c(N2CCOCC2)c(C#N)c2ccccc21
  -1.1%	-3.5	x	2.5	1	27
O=C(NCc1cccnc1)c1ccc(Br)o1
  -0.9%	-3.1	7	0.3	-4	-9
CCc1nc2ccc(C(=O)NCc3ccccc3OC)cn2c1N(C)C(=O)Cc1ccccc1
  0.5%	-1.6	5	-0.2	4	x
Cc1ccnc(NC(=S)NC(=O)c2cccs2)c1
  0.7%	-4.7	-14	0.9	-3	1
CSc1cccc(NC(=S)NCCCN2CCN(c3ccc(F)cc3)CC2)c1
  -0.1%	-1.6	4	-0.6	3	1
O=C(NC1CCCCC1)c1ccc2c(c1)S(=O)(=O)c1ccccc1C2=O
  2.3%	1.2	3	-1.3	-6	-4
CCOC(=O)CSc1snnc1C
  27%[38.3 µM]	-0.8	4	-0.4	4	4
CCCCNC(=O)c1sc2ncnc(N3CCc4ccccc4C3)c2c1C
  -2.8%[38.3 µM]	-6.0	4	-0.1	-7	-3
O=S(=O)(Nc1ccc(S(=O)(=O)Nc2nccs2)cc1)c1ccc(Br)cc1
  -0.4%	-5.9	-5	-0.3	-5	-5
COc1cc(SC)ccc1C(=O)Nc1cc(C)ccn1
  1.1%	-2.7	-4	0.7	-2	-4
CCNC(COC(=O)c1ccc([N+](=O)[O-])cc1)C1CCCCC1 (configuration not stated)
  7.5%	-2.3	1	0.0	-8	-14
Cc1ccnc2nc(C(=O)OCC(=O)Nc3ccc([N+](=O)[O-])cc3Br)nn12
  -1.1%	-4.6	5	2.1	1	30
Cc1cc(Cl)ccc1NC(=S)N1CCOCC1
  2.2%	-0.7	-4	-0.3	-6	13
CC1(C)CC(=O)/C(=C(/O)Cc2ccccc2)C(=NCCc2ccccc2)C1
  1.3%	-2.8	20	0.0	6	-1

Reformatted: entries from further up.
Molecule	PINK1 expr mod	D2 agonist	CtBP-E1A inh	TRPML1 agonist	Six1-Eya2 blk	TRPML1 blocker
CCNC(=O)C1(C)CCCN(Cc2csc3ccccc23)C1 (configuration not stated)	-0.6%	-6.2	2	-0.1	-2	-1
COc1ccc(CCNC(=O)CSc2n[nH]c(N)n2)cc1OC	-0.2%	-2.0	0	0.0	-1	-12

Next structures
Sequence of screens: PINK1 expr mod	D2 agonist	CtBP-E1A inh	TRPML1 agonist	Six1-Eya2 blk	TRPML1 blocker
CCOc1ccc(C2/C(=C(\O)c3ccc(OC)c(OC)c3)C(=O)C(=O)N2c2cc(C)on2)cc1OC (configuration not stated)
  0.6%	-5.4	1	0.4	4	3
COc1cccc(NC(=O)c2ccc(S(=O)(=O)N3CCCCC3)cc2)c1
  4.9%	-2.2	-2	-0.9	1	-11
O=C(CCC(=O)Nc1ccccc1Cl)NNC(=O)COc1ccc([N+](=O)[O-])cc1
  3.4%	-1.6	-9	0.3	2	-9
CCOc1c2ccc(C(=O)NCc3ccc4c(c3)OCO4)cc2nn1CCOC
  0.0%	-3.5	8	-0.6	4	6
COc1ccc(C2(C(=O)Nc3ccc(C(=O)O)cc3)CCOCC2)cc1
  -0.8%	-3.5	0	-0.2	-1	3
CCCC(NC(=S)NCC1CCCO1)C12CC3CC(CC(C3)C1)C2 (configuration not stated)
  u	-6.4	x	1.7	-15	31
c1ccc(-c2csc3ncnc(N4CCN(Cc5ccc6c(c5)OCO6)CC4)c23)cc1
  0.2%	-2.0	x	4.3	-2	14
C/C=C/C(=O)OCC(=O)Nc1nc2ccc(C)cc2s1
  -0.9%	1.5	5	-0.4	4	-11
O=C(NCc1ccco1)c1cccc2c1C(=O)c1ccc(N3CCC(N4CCCCC4)CC3)cc1S2(=O)=O
  0.2%	-0.3	6	7.9	-12	0
CCc1ccc(C2NC(=S)NC3=C2C(=O)CC(C)(C)C3)cc1 (configuration not stated)
  4.3%	-2.3	0	0.9	-1	-1
CC1(C)Cc2cccc(C(=O)Nc3ccc(F)cc3F)c2O1
  8.6%	-1.1	14	3.1	12	-4
CCOc1ccc(OCC)c(NC(=O)CCc2nc3cccnc3n2Cc2cccs2)c1
  0.1%	x	x	1.4	x	6
COCCNc1nc(Nc2ccc(C(=O)OC)cc2)c2sccc2n1
  -0.8%	-3.8	u	-1.0	-28	x
COc1ccc(C)cc1NC(=O)CN1C(=O)COc2ccc(S(=O)(=O)N3CCCCC3)cc21
  0.6%	-3.7	-1	2.7	0	-5
CCOC(=O)c1sc(NC(=O)CCN2CCN(CC)CC2)c(C(=O)OCC)c1C
  0.8%	-1.8	-12	0.5	-29	25
COc1ccc(C(=O)/C=C/Nc2ccc(S(=O)(=O)Nc3cccc(C(C)=O)c3)cc2)cc1
  6.6%	3.6	-10	-0.5	-13	-14
O=C(CCCc1ccccc1)N=C1SC2CS(=O)(=O)CC2N1c1ccccc1F (configuration not stated)
  -0.4%	-3.5	8	-0.7	1	2
COc1ccc(CCNC(=O)/C=C/c2ccc(OC)c(S(=O)(=O)N3CCOCC3)c2)cc1
  8.5%	-3.3	-9	-0.4	-3	4
O=C(Nc1ccccc1-c1ccccc1)C1CCCCC1
  -0.3%	0.6	5	2.8	3	23
CCOC(=O)c1c(NC(=O)C(C)Sc2cn(CCNC(=O)c3ccc(OCC)cc3)c3ccccc23)sc2c1CCC2 (configuration not stated)
  1.0%	x	x	-0.2	x	15

More records.
Sequence of screens: PINK1 expr mod	D2 agonist	CtBP-E1A inh	TRPML1 agonist	Six1-Eya2 blk	TRPML1 blocker
CC1=C(C(=O)OCC2CCCO2)C(c2ccc(Cl)c(Cl)c2)NC(=O)N1 (configuration not stated)
  -3.4%	-1.7	-2	0.5	1	-19
Cc1cnc(C(=O)OCC(=O)N2CCc3ccccc32)cn1
  -0.9%	-5.2	x	0.2	12	-9
O=c1c2c(n3cnnc3n1C1CCCCC1)-c1ccccc1CC21CCCCC1
  23%[38.3 µM]	-2.8	-13	0.7	-1	63
CCCCSc1nc2c(c(C(F)(F)F)c1C#N)CCC2
  -1.9%	0.2	45	1.1	44	10
O=C1c2ccc3c4c(ccc(c24)C(=O)N1NC(=O)C(F)(F)F)CC3
  2.6%[38.3 µM]	5.3	40	0.4	-26	-13
O/C(=C\c1nc2ccccc2[nH]1)c1cccs1
  0.9%	-6.7	-4	0.7	10	15
Cc1cccc(N2CCN(C(=O)Cc3cn(C)c4ccccc34)CC2)c1C
  -2.4%	-3.4	-20	4.0	-20	3
O=C(O)CCCc1c(-[n+]2ccccc2)[nH]c2ccccc12
  2.0%	-4.6	x	1.2	11	11
Cc1noc(C)c1CSc1nnc2cc(C)c3ccccc3n12
  3.2%	-1.9	1	0.2	-1	-7
CCOc1ccc(C(=O)Nc2cc(C)on2)cc1OCC
  0.1%	-2.1	-2	0.2	0	12
CCc1ccc(NC(=O)CSC2=Nc3ccccc3C3=NC(CCC(=O)NCc4ccco4)C(=O)N23)cc1 (configuration not stated)
  0.8%	x	x	2.6	x	33
NS(=O)(=O)c1ccc2nc(-c3ccccc3)c(-c3ccccc3)nc2c1
  5.6%	-1.5	-2	-0.6	-15	-9
O=C1C=C(/C=C/c2ccccc2)C[C@@H](c2ccc3c(c2)OCO3)C1
  2.1%	-0.6	u	2.0	-19	-1
C=CCc1ccc(OCCOCCOc2ccc(C)cc2[N+](=O)[O-])c(OC)c1
  -0.9%	-2.5	6	1.0	3	-8
CC(=O)c1cccc(N(CC(=O)NCCc2ccccc2)C(=O)c2csnn2)c1
  -0.9%	-5.0	-1	0.3	6	-8
Cc1ccc(NC(=O)CSc2nc3ccccc3c(=O)[nH]2)cc1[N+](=O)[O-]
  -0.3%	-0.7	-10	2.3	-14	2
O=C(C1CCCN(S(=O)(=O)c2cc(Cl)ccc2Cl)C1)N1CCCC1 (configuration not stated)
  -1.0%	-3.1	8	1.3	3	-22
O=C(C1CCCC1)N1CCC(CC2CC(c3cccc(Br)c3)=NO2)(C(=O)NCC2CCCCC2)CC1 (configuration not stated)
  2.2%	2.7	x	0.0	14	-2
CCN(CC)C(=O)CN1C(=O)c2cccc3cccc(c23)C1=O
  -0.7%	1.5	5	-0.5	3	1
Cc1cc(C(=O)NCc2ccccc2C)c2c(C)nn(-c3cccc(F)c3)c2n1
  -0.5%	x	x	-0.6	x	5

Next structures follow.
Sequence of screens: PINK1 expr mod	D2 agonist	CtBP-E1A inh	TRPML1 agonist	Six1-Eya2 blk	TRPML1 blocker
COc1cc(CC(=O)OCC(=O)Nc2ccc3c(c2)OCCO3)cc(OC)c1OC
  0.8%	-4.3	-15	0.5	-3	25
NS(=O)(=O)c1ccc(CCNC(=O)c2cc(=O)[nH]c3ccccc23)cc1
  0.6%	-1.7	2	0.6	13	11
Cc1c(C)c2ccc(OC(C)C(=O)N3CC[C@@]4(O)CCCC[C@H]4C3)c(C)c2oc1=O (some centres not stated)
  0.8%	-1.9	-3	x	-2	x
CC1=C(C(=O)OCC(C)C)C(c2ccc(Br)s2)NC(=O)N1 (configuration not stated)
  1.8%	7.3	-9	0.7	-6	3
Cn1c(N)c(C(=O)CNC2CCCCC2)c(=O)n(C)c1=O
  -0.9%	-5.8	1	-0.5	2	-3
CN1CCN(C(=O)C2=C[C@H](c3coc4ccccc4c3=O)C[C@H](OCc3ccc(CO)cc3)O2)CC1
  0.6%	-1.8	5	-0.9	-5	-3
CCN(C(=O)COC(=O)CN(C)S(=O)(=O)c1ccc(NC(C)=O)cc1)C1CCS(=O)(=O)C1 (configuration not stated)
  2.7%	-2.2	-8	-0.2	3	8
Cc1ccc2[nH]cc(C(=O)NCc3cccs3)c(=O)c2c1
  -1.3%[38.3 µM]	3.2	10	5.2	-10	-6
Cc1ccc(/C=N\NC(=O)c2csnn2)cc1
  0.3%	-2.3	5	-0.6	-8	-5
Cc1oncc1-c1cn2ccccc2n1
  1.1%	-0.6	3	0.7	5	22
CCCCOC(=O)c1ccc(Nc2nnc(-n3nc(C)cc3C)c3ccccc23)cc1
  -0.1%	x	x	2.7	x	2
COc1ccc(C)c2sc(NC(=O)c3ccc(S(=O)(=O)N4CCOCC4)cc3)nc12
  -4.1%	x	x	0.7	x	12
Cc1cc(C)n2nc(CNC(=O)c3ccc(Cl)cc3)nc2n1
  2.0%	x	x	0.9	x	14
O=C(CN1CCN(c2ccccn2)CC1)Nc1ccc(OCc2ccccc2)cc1
  -3.6%	41*	1	1.1	-4	10
